TAR Tat displ: TAR RNA-Tat peptide displacers, HIV-1, primary screen, biochemical, FRET, FAM/TAMRA-labeled Tat | AID 1259389, 2018 | hit rate 0.6% among 100,000 | z-score (test concentration not listed) | HIV-1 TAR RNA, Tat peptide displacement FRET; hits give high values;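 note: score is relative to mean and SD of negative controls; some compounds called inactive have numbers as strong as hits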
CDC25B CDK2 inh: primary biochemical HTRF screen for blockers of M-phase inducer phosphatase 2 binding to CDK2/cyclin A | AID 1259370, 2018 | z-score (no concentration beside the values) | HTRF CDC25B-CDK2/CyclinA binding, anti-His/anti-Flag; hits give high values | hit rate 0.72% among 94,000;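 note: score is relative to mean and SD of negative controls; strong numbers were not always called active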
* hit, by the source's call; x = not tested or not shown.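 Rule for the calls: active = z-score from 3 up in half or more of its runs; inactive = the rest.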

Each structure is followed by: CDC25B CDK2 inh | TAR Tat displ
> CCOC(=O)C1CCCN(c2c(-c3ccc(C)c(C)c3)c(=O)c2=O)C1 (stereo not drawn)
    x | 1.2
> O=C(Cn1cc(S(=O)(=O)Cc2ccc(Br)cc2)c2ccccc21)N1CCCC1
    x | -0.7
> CN1C(C(=O)NC2CCCCC2)=CC(c2cccs2)=NS1(=O)=O
    -0.15 | 1.7
> CC1CCCC(C)N1CCCNC(=O)C1CCCN(c2ncnc3c2nc2n3CCCCC2)C1 (stereo not drawn)
    x | -0.85
> CC(C)C(=O)N(c1ccc2oc(=O)sc2c1)S(=O)(=O)c1cccc2cccnc12
    -2.8 | x
> Cc1ccc(C)c(S(=O)(=O)N(CCN2CCCCC2C)CCS(=O)(=O)N2CCNCC2)c1 (stereo not drawn)
    x | 2.5
> Cc1cc(-c2ccc(C(C)C)c(S(=O)(=O)NCc3ccc(F)cc3)c2)on1
    x | 2.4
> O=C(c1[nH]nc2c1CCc1ccccc1-2)N1CCN(c2ccccn2)CC1
    x | 1.9
> c1ccc2c(CCNc3ncnc4nc[nH]c34)c[nH]c2c1
    0.39 | x
> CCc1nc(SCc2cc(=O)c3cc(F)ccc3[nH]2)n[nH]1
    x | 1.1
> O=S1(=O)CC2C(C1)N(c1ccc(F)cc1)C(=S)N2c1ccccc1 (stereo not drawn)
    2.7 | x
> CN1CCc2c(sc(-n3cccc3)c2CNC(=O)Nc2ccc(Cl)cc2)C1
    x | -7.9
> C#Cc1ccc(NC(=O)CCc2cc(Cl)no2)cc1
    -0.46 | -0.35
> Cc1csc(NC(=O)CSc2nc(=O)n(Cc3cccnc3)c3c2CCC3)n1
    x | 0.92
> COc1cc(C2Nc3ccccc3NC3=C2C(=O)CC(c2ccc4c(c2)OCO4)C3)cc(OC)c1O (stereo not drawn)
    -2.1 | x
> Cc1cc(-c2nc(C)c(-c3nnc(SCC(=O)Nc4ccc(C(C)C)cc4)n3C)s2)no1
    -0.97 | x
> COC(=O)CN1C(=O)COc2ccc(S(=O)(=O)NC(C)C)cc21
    x | 1.1
> C=CCN1C(=O)C(O)(CC(=O)c2ccc3ccccc3c2)c2ccccc21 (stereo not drawn)
    0.42 | -0.09
> O=S(=O)(c1ccc(F)cc1)N1CCN(Cc2ccc(F)cc2)CC1
    x | 0.92
> Nc1ncnc2c1ncn2[C@@H]1C=C(CO)[C@@H](O)[C@H]1O
    x | 1.3

Single records, from the list above:
`CN1CCc2c(sc(-n3cccc3)c2CNC(=O)Nc2ccc(Cl)cc2)C1` as listed: CDC25B CDK2 inh = x; TAR Tat displ = -7.9
`CC1CCCC(C)N1CCCNC(=O)C1CCCN(c2ncnc3c2nc2n3CCCCC2)C1` (stereo not drawn) as listed: CDC25B CDK2 inh = x; TAR Tat displ = -0.85

Other entries:
Each structure is followed by: CDC25B CDK2 inh | TAR Tat displ
> C=CCOC(=O)C1=C(C)Nc2nc(SCC(C)C)[nH]c(=O)c2C1c1ccc(C(=O)OC)cc1 (stereo not drawn)
    -1.6 | -0.12
> CCOc1ccc(CCNS(=O)(=O)c2ccc(-c3cc(C)no3)s2)cc1OCC
    x | 0.52
> O=C(c1ccc(SCCN2CCOCC2)nc1)N1CCN(c2ccccn2)CC1
    x | 1.4
> Cc1cc(C)cc(CC2CC(=O)N(c3nc(C)cc(C)n3)C2=O)c1 (stereo not drawn)
    -0.49 | 1.4
> CCCCOC(=O)CSc1nc(-c2ccccc2)c(C#N)c(=O)[nH]1
    1.5 | 1.2
> CN(C)c1ccc(C2=Nc3cccc4cccc(c34)N2)cc1
    -0.97 | 1.5
> O=C(NCc1ccccc1)N1CCN2CCCCC2C1 (stereo not drawn)
    x | 0.25
> Cc1oc2ccc(OCC(=O)OCc3ccccc3)cc2c1C(=O)OC(C)C
    -1.4 | -1.1
> CCC(C)NC(=O)CCc1nnc2ccc(NCc3cccnc3)nn12 (stereo not drawn)
    x | 1.4
> O=C(O)CN1C(=O)C(=O)/C(=C(\O)c2ccc(Br)cc2)C1c1ccccc1 (stereo not drawn)
    -1.3 | 1.5
> CCCNC(=O)c1cc2sc(C)cc2n1C
    0.57 | -1.2
> COC(=O)c1ccc(-c2ccco2)n1CC(=O)c1ccccc1
    -1 | -5.9
> Cc1ccc(C(=O)c2cnc3cc4c(cc3c2N2CCC(C(N)=O)CC2)OCCO4)cc1C
    -1.6 | 5.5
> O=C(CN1c2ccc(Br)cc2-c2ccccc2S1(=O)=O)Nc1c(F)cccc1F
    -0.38 | 0.79
> Cc1cc2ccccc2n2c(SCC(=O)NCc3ccco3)nnc12
    -2.4 | x
> CN(C)/C=C/C(=O)C12CC3CC(CC(C3)C1)C2
    -1.6 | x
> CC(C)(C)CC(C)(C)NC(=O)c1cc2n(n1)C(C(F)(F)F)CC(c1ccc3c(c1)OCO3)N2 (stereo not drawn)
    x | 2
> N#CC1=C2SCN(Cc3ccccc3)CN2C(=O)CC1c1ccc2c(c1)OCO2 (stereo not drawn)
    4* | 0.95
> Cc1csc(NC(=O)c2ccco2)c1C(=O)c1ccccc1
    -1.7 | x
> O=C(OCc1ccc(C#Cc2ccccc2)s1)c1cccs1
    -0.45 | x
> Cc1cc(NC(=O)CS(=O)(=O)c2ccc3c(c2)S(=O)(=O)N=CN3)ccc1Br
    x | 1.3
> CSc1nnc(-c2ccc(S(=O)(=O)n3nc(C)c(Br)c3C)s2)n1C
    -0.52 | x
> CC1=Nc2cc(C(=O)N3CCCCC3)ccc2Sc2ccc(C)cc21
    -0.13 | 0.32
> O=c1cc2cc(O)[nH]c(=O)c2c(O)[nH]1
    19* | x
> O=C(CC1CCCC1)Nc1noc2ccccc12
    -1.9 | 2.4
> O=C(Cn1c(=O)c2cccn2c2ccccc21)NC1CCCC1
    x | 1.1
> COC(=O)CSC1=C(C#N)C(=O)NC(c2ccc(OC)c(OC)c2)S1 (stereo not drawn)
    -0.64 | -0.5
> CCN1CCN(C2=NS(=O)(=O)c3ccccc32)CC1
    0.37 | 1.4
> O=C(c1[nH]nc2c1COc1ccccc1-2)N1CCOCC1
    x | 0.02
> O=C(Nc1ccc2c(c1)OCO2)NC1COc2ccccc2C1 (stereo not drawn)
    x | 0.64
> O=C(c1cc2c(s1)-c1ccccc1S(=O)(=O)C2)N1CCCC1
    -1.4 | 1.3
> COC(=O)c1cccc(N(Cc2c(F)cccc2Cl)C2=NC3CS(=O)(=O)CC3S2)c1 (stereo not drawn)
    0.14 | 1.4
> O=C1c2cccnc2C(Nc2ccc(F)cc2F)N1Cc1ccc(F)cc1 (stereo not drawn)
    x | 0.6
> C=CCSc1nnc(-c2ccc(C(F)(F)F)nc2C)o1
    -0.98 | x
> O=C(Nc1nnc2n1CCCS2)c1ccccc1Cl
    x | 1.2
> Cc1noc(C)c1CCNC(=O)c1ccc(N2CCOc3ccc(Cl)cc32)s1
    -2.1 | 3.5
> O=c1[nH][nH]c(=S)n1-c1cccc(Cl)c1
    -1.7 | x
> CC(C)(CC(=O)O)CC(=O)NCc1csc2ccc(Cl)cc12
    -4 | x
> Cc1cc2nnc(SCC(=O)OCC(C)C)n2c2ccccc12
    -1.1 | -1.2
> CN(C(=O)CSc1nc2ncccc2o1)c1ccc(F)cc1
    x | -1.3

An excerpt of these results, as tab-separated lines.
Structure	CDC25B CDK2 inh	TAR Tat displ
O=C(c1[nH]nc2c1COc1ccccc1-2)N1CCOCC1	x	0.02
O=C(Nc1ccc2c(c1)OCO2)NC1COc2ccccc2C1 (stereo not drawn)	x	0.64
O=C(c1cc2c(s1)-c1ccccc1S(=O)(=O)C2)N1CCCC1	-1.4	1.3
COC(=O)c1cccc(N(Cc2c(F)cccc2Cl)C2=NC3CS(=O)(=O)CC3S2)c1 (stereo not drawn)	0.14	1.4

Remaining list, next part
Each structure is followed by: CDC25B CDK2 inh | TAR Tat displ
> CCC1(C)Cc2ccccc2-c2[nH]c(=O)[nH]c(=O)c21 (stereo not drawn)
    -2.5 | 0.48
> CC(C)CC(=O)OCc1cc(=O)n2nc(C(C)C)sc2n1
    x | 1.2
> CCn1c(=O)n(-c2ccc(F)c(Cl)c2)c(=O)c2c3c(sc21)CN(C(C)=O)CC3
    -2 | 2.3
> CCOC(=O)c1ccc(NCC(CNC(C)=O)([N+](=O)[O-])[N+](=O)[O-])cc1
    -0.86 | x
> c1ccc2[nH]c(CCCc3nc4ccccc4s3)nc2c1
    -0.26 | 0.72
> Cc1ccc(C)c(C2CC(=O)Nc3nc(SCc4ccccc4)[nH]c(=O)c32)c1 (stereo not drawn)
    -0.44 | 0.66
> Cc1sc2ncnc(N3CCCC3)c2c1C
    x | 2.3
> COCOc1ccc(C(=O)O)cc1OC
    -0.65 | x
> Cc1ccc(NS(=O)(=O)c2ccc(-c3ccc(=O)[nH]n3)s2)cc1N(C)C
    x | 0.54
> Cc1cc(C)c(S(=O)(=O)N2CCN(Cc3ccc4c(c3)OCO4)CC2)cc1C
    -1.1 | 2.8
> Cn1c(=O)oc2cc(NS(=O)(=O)c3ccc(F)cc3)ccc21
    x | 0.47
> COc1cccc(C2=NS(=O)(=O)c3cc(S(=O)(=O)N4CCCCC4)ccc3N2)c1
    x | 0.15
> Nc1ncnc(N2CCN(c3ccccc3Cl)CC2)c1[N+](=O)[O-]
    -3.3 | x
> CCCNC(=O)Nc1ccc(N2CCC(C(F)(F)F)CC2)nc1
    -0.05 | x
> CCC(=O)c1cn(CC(=O)N2CCOCC2)c2ccccc12
    1.6 | 1.5
> Cc1cc(F)ccc1S(=O)(=O)NCCc1csc(-c2ccc(Cl)cc2)n1
    x | 0.2
> COc1ccc(C(=O)CSc2nc3nc(C)cc(C)n3n2)cc1OC
    -1.5 | -0.54
> C=CCSc1nnc(-c2cc3occc3n2C)n1-c1cc(Cl)ccc1OC
    x | -6.7
> CCOC(=O)Cn1c(=O)c(C(=O)NC(=O)OCC)cn(Cc2ccccn2)c1=O
    -1.8 | x
> CC1CCN(C(=O)c2cc3c(s2)-c2ccccc2OC3)CC1
    -0.52 | 0.75
> Cc1cc(-c2ccc(C)c(S(=O)(=O)N3CCN(C4CCCCC4)CC3)c2)n[nH]1
    x | 1.2
> CCc1nn2c(=O)cc(COC(=O)CSc3ccc(C)cc3)nc2s1
    x | -0.79
> COc1ccc(-c2cc(C(F)(F)F)n3nc(C(N)=O)cc3n2)cc1
    -1.7 | 0.53
> COc1ccccc1CNS(=O)(=O)c1ccc2c(c1)OCCO2
    1 | 1.6
> COc1cc(C2c3c(-c4ccccc4O)n[nH]c3C(=O)N2CCc2ccccc2)ccc1O (stereo not drawn)
    -1.4 | 0.78
> Cc1nnc(SC(=O)N2c3ccccc3Sc3ccccc32)s1
    -3.6 | x
> O=C(Nc1ccccc1)c1nc(-n2cnnc2)ccc1Cl
    x | 1.3
> CCN(Cc1cc(=O)n2c(C)csc2n1)c1ccc(OC)cc1
    x | 1.6
> O=c1ccc(-c2ccc(S(=O)(=O)Nc3cccc(Cl)c3)o2)n[nH]1
    x | 2.3
> CSc1ccc(Cn2nnc(C(=O)NCCc3ccc(Cl)cc3)c2N)cc1
    0.15 | x
> CCN(CC)CCCNC(=O)C1CCCN(c2nn3c(=O)c4c(nc3s2)CCCC4)C1 (stereo not drawn)
    x | -0.04
> Cc1nc2sc(C(c3ccc(Cl)cc3)N3CCCC(C)C3)c(O)n2n1 (stereo not drawn)
    -1.1 | x
> CNC(=O)c1cc2oc3ccccc3c2n1C
    -1.4 | 2.5
> CCCCOc1ccc(C2CC(=O)Nc3c2c(C)nn3-c2ccc3nnc(C)n3n2)cc1OCC (stereo not drawn)
    x | -0.31
> Cc1cccc(NS(=O)(=O)c2cc(Br)cnc2N)c1
    -1.3 | 2
> Cc1ccc(CNc2c(-c3ccc(F)cc3)nc3ncccn23)cc1
    x | -0.82
> CCCc1nnc(NC(=O)c2nn(-c3cccc(Cl)c3)ccc2=O)s1
    -1.2 | 0.51
> CC(=O)CSC(=O)c1c(-c2c(Cl)cccc2Cl)noc1C
    0.11 | x
> Cc1cc(C(=O)O)c2cc(Br)ccc2n1
    -1 | 0.51
> COc1cccc(C2NC(=O)c3n[nH]c(-c4ccco4)c32)c1 (stereo not drawn)
    1.2 | -1.1

Shown as labelled records: part of the list above
> O=C(Nc1ccccc1)c1nc(-n2cnnc2)ccc1Cl
  CDC25B CDK2 inh = x | TAR Tat displ = 1.3
> CCCCOc1ccc(C2CC(=O)Nc3c2c(C)nn3-c2ccc3nnc(C)n3n2)cc1OCC (stereo not drawn)
  CDC25B CDK2 inh = x | TAR Tat displ = -0.31

Next compounds:
Each structure is followed by: CDC25B CDK2 inh | TAR Tat displ
> Cc1cc(Br)ccc1NC(=O)CSc1nc2c(cc1C#N)C(=O)CCC2
    -6.5 | -0.76
> CC1CC(C)CN(CCCNC(=O)C2CCCN(c3ncnc4c3nc3n4CCCCC3)C2)C1 (stereo not drawn)
    5.9 | -0.17
> O=C(O)CCc1ccc(-c2ccccc2)n1-c1cccc(O)c1
    -1.4 | -5.8
> O=C(Cn1cnc(S(=O)(=O)N2CCc3ccccc32)c1)NCCc1ccco1
    x | 0.81
> O=[N+]([O-])c1cccnc1NCCc1ccncc1
    -0.51 | x
> CCN1CCCC1CNC(=O)Cn1nc(C)n2c(cc3cc(C)ccc32)c1=O (stereo not drawn)
    -0.54 | 1.3
> Nc1cccc(-c2nc3ccc(C(=O)c4ccccc4)cc3[nH]2)c1
    0.03 | x
> CNC(=O)c1nc(N2CCCCC2)sc1N
    -0.66 | 2.3
> CCOc1ccc(CNc2nc3ccccc3c3nncn23)cc1OC
    x | 1.1
> Cc1nc2c(s1)sc1ccccc12
    -1.5 | x
> CN(c1ccccc1)S(=O)(=O)c1cc2c3c(c1)CC(=O)N3CCC2
    x | 1.9
> O=C(c1ccc2c(Cl)c3c(nc2c1)CCC3)N1CCCC1
    -1.3 | 0.29

Source: PubChem
